# Menin MLL FP FL: menin-MLL binding inhibition, fluorescein peptide; Fluorescence polarization, fluorescein-MLL peptide displacement from menin; FP activity change, % at 61.4 µM; 290,000 tested, under 10 active; inconclusive = falling polarisation curve, or a change in total fluorescence; inactive = total fluorescence flat and polarisation flat or rising; no compound was filed as active; the % refers to the polarisation; negative = inhibition;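 note: % of control where 0% means no effect; inhibitors lower the polarisation; unlabelled MLL peptide was the positive control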
# TRPV1 potentiator: potentiators of human vanilloid receptor 1 (TRPV1). Q8NER1. TRPV1-expressing cells, Fluo-8 calcium influx, capsaicin EC20 potentiation; host cell line not named in the record; control for the full effect not named in the record. potentiation, % at 8.33 µM. 320,000 compounds, 0.02% hits; active means potentiation above 80%; inconclusive means 30% to 80%; inactive means below 30%; note: 0% is about no effect
# Target sequence (Q8NER1 whole entry, looked up): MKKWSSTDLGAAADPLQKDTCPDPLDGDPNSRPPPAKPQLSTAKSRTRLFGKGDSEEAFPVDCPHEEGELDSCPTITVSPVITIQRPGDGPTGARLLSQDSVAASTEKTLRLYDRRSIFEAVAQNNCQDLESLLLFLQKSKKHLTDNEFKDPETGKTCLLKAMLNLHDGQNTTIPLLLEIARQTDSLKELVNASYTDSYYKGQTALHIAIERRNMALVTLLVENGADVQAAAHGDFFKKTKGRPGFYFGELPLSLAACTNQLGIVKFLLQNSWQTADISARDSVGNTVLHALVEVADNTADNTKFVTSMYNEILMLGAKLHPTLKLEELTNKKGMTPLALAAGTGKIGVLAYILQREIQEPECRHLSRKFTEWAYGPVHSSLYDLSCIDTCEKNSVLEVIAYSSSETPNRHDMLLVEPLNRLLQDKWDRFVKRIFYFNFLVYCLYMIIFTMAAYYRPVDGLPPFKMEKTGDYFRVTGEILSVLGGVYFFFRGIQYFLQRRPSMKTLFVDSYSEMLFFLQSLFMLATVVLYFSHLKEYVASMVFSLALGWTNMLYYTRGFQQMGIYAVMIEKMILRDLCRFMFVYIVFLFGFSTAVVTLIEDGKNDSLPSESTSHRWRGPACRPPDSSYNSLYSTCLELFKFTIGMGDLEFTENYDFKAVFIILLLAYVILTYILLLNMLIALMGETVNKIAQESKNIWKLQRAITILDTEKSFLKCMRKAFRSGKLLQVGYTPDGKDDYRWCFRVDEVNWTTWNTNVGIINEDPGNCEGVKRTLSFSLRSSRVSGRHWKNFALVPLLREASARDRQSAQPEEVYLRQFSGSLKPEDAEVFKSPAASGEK
#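 Fluo-8 calcium influx in TRPV1-expressing cells, kinetic read (ex 480/em 520 nm). Compound added and read 3 min for agonist activity, followed by capsaicin at EC20 final and 2 min further read for enhancement.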
# gsp antagonist: antagonizes gsp, the McCune-Albright syndrome mutation | gsp-mutant cells, cAMP HTRF, 30 min; control for the full effect not named in the record | 340,000 compounds, 0.4% hits | Potency, µM (doses to about 76.9 µM), without a hit: at the highest dose activity change, negative = inhibition, hits mostly inhibitors; active = falling curve of any shape with a large fitted effect; inconclusive = falling curve, mostly with a smaller effect; inactive = flat or rising curve; cell line not stated here;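 note: intracellular cAMP measured with PDE inhibitor Ro 20-1724 present during compound exposure; potency is the fitted concentration of half-maximal effect; % is set by controls: 0 for no effect and ±100 for the full control effect; nearly all actives have a fitted effect of over 65% in size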
#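 Cells, 2000/well, grown 16–24 h in DMEM 10% FBS with 0.5 mg/ml G418, then compounds plus […] (300 uM addition stock), 30 min at 37C. cAMP read by HTRF (cAMP-d2 and anti-cAMP antibody-K in lysis buffer) after 30 min RT.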
# ClpP mod: qHTS Assay for Activators of ClpP; 340,000 compounds, 1.9% hits; purified B. subtilis ClpP, FRET peptide cleavage, 20 min; AID 651965, 2013; Potency, µM (top dose mostly 57.5 µM), for the others: top-dose activity change, negative = active; active = well fitted falling curve with a large enough effect; inconclusive = small, poorly fitted or top-dose-only effect; inactive = no such curve, though single readings can be large or run the other way; note: potency is the fitted concentration of half-maximal effect; the source files actives as falling curves though it sought activators and does not explain the sign; nearly all actives have a fitted effect of over 65% in size; many hits overshoot -100%
#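 Purified B. subtilis ClpP, 10 microg/mL final in Tris/HCl pH8 with KCl, BSA, glycerol and Tween-20, cleaved an Abz/nitrotyrosine-quenched decapeptide. Fluorescence (ex 320, em 430) was read at 0 and 20 min at room temperature. Delta was normalized to 5.8 microM ADEP and DMSO/no-enzyme controls.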
# Sfp inh: inhibitors of Bacillus subtilis Sfp phosphopantetheinyl transferase. Q9F4F7. Biochemical Sfp PPTase activity, qHTS. 310,000 compounds, 3.5% hits. AID 1490. Potency, µM, for the others: max response, negative = inhibition, usual class: inhibitors; active = well fitted inhibition curve with a large enough effect; inconclusive = small, poorly fitted or top-dose-only effect, or another doubt; inactive = no such curve, though single readings can be large or run the other way;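 note: the enzyme is Sfp with the accession as filed and its product quenches rhodamine fluorescence; potency is the fitted concentration of half-maximal effect; 0% = enzyme reaction without inhibitor and -100% = no enzyme wells; top concentration of the series not given in the record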
#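 Buffer: 50 mM Hepes-Na pH 7.6, 10 mM MgCl2, 0.01% Nonidet P-40, 0.01% BSA. Enzyme 15 nM, pre-exposed to compound 15 min; substrates then added and fluorescence change tracked over 30 min.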
# TRPML1 inh: inhibitors of human TRPML1 channel; 390,000 compounds, 0.02% hits; activity change, negative = inhibition, % (test concentration not listed); TRPML1-inducible cells, Ca2+ dye fluorescence, FDSS; active compounds read low; inhibition of EC80 agonist-evoked calcium signal; in the data active means activity change below about -50%; inconclusive means about -30% to -50%; inactive means above about -30%;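 note: stimulus is agonist 54-4 at its EC80 concentration; % is set by controls: 0 for no effect and ±100 for the full control effect; compound concentration not given in the record; the text of the record puts the active cut at -80%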
#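 Tet-induced TRPML1-DL cells loaded with Ca8 no-wash calcium dye were read kinetically on FDSS. Compound addition was followed by EC80 agonist 54-4 (4 uM final); inhibition was read over 110 s.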
# gsp ag: activates gsp, the McCune-Albright syndrome mutation. gsp mutant cells, cAMP HTRF, 30 min; control for the full effect not named in the record. Potency, µM (highest dose often 76.9 µM), inactives show top-dose activation (cAMP increase), usual class: activators. 340,000 compounds, 0.13% hits; active = well fitted activation curve with a large enough effect; inconclusive = small, poorly fitted or top-dose-only effect, or another doubt; inactive = no such curve, though single readings can be large or run the other way; cell line not stated here;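 note: phosphodiesterase inhibitor Ro 20-1724 added with compounds to block cAMP breakdown; potency is the fitted concentration of half-maximal effect; nearly all actives have a fitted effect of over 60% in size; about a fifth of the inactives were tested at one dose only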
#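 Cells stably selected in G418 were plated at 2000/well, grown 16-24 hr, then given compounds in DMSO with the PDE inhibitor […] (300 uM solution added) for 30 min at 37C; cAMP was read by HTRF.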
# The depositor's hits bear a star; ? = inconclusive; . = not tested or not shown; [ ] = remark or other dose.
# The first 12 records, to show the layout:
1. CCCC(CCC(=O)Nc1cc([N+](=O)[O-])ccc1O)C(=O)O (centres undefined)
2. Cn1nc(C(=O)NNC(=O)CCc2ccccc2Cl)c2ccccc2c1=O
3. COc1cc(CNc2ccccc2Oc2cc(=O)n(C)c(=O)n2C)cc(OC)c1OC
4. CCCNS(=O)(=O)c1ccc2c(c1)CCCN2C(C)=O
5. O=C(/C=C/c1ccco1)Nc1ccccc1N1CCCC1
6. CC(C)Sc1nc2c(c(=O)n(C)c(=O)n2C)n1Cc1ccc(Cl)cc1
7. O=S(=O)(Nc1nc2ccccc2nc1Cl)c1ccc2ccccc2c1
8. Cc1ccc(C(=O)N/C(=C\c2ccco2)C(=O)N2CCOCC2)cc1C
entry no. | 1 | 2 | 3 | 4 | 5 | 6 | 7 | 8
Menin MLL FP FL | -3.0 | . | 2.2 | 4.9 | -2.3 | 0.4 | 11 | .
TRPV1 potentiator | 2 | 15 | -16 | 4 | -6 | . | -1 | -2
gsp antagonist | 0% | -5% | 1% | 11% | -10% | 10% | -14% | -2%
ClpP mod | . | -1.5% | 0.0% | -2.5% | 3.5% | -0.4% | -12% | 1.4%
Sfp inh | -3% | . | -19% | 19% | ? | 2% | ? | -16%
TRPML1 inh | 8 | 5 | 44 | -18 | 1 | 19 | 19 | 4
gsp ag | -48%[inhibitor] | ? | -12% | -25% | 1% | 17% | 28% | -9%

9. N#Cc1c(N)n(C2OC(CO)C(O)C2O)c2ncnc(N)c12 (centres undefined)
10. CN(C)Cc1nc2ccccc2c(=O)n1Cc1nc(-c2cccc([N+](=O)[O-])c2)cs1
11. Cc1cc(C)n(CCN(C)c2nc3nonc3nc2NC2CC2)n1
12. OC(COc1ccc(Cl)c2ccccc12)CN1CCN(c2ccccn2)CC1 (centres undefined)
entry no. | 9 | 10 | 11 | 12
Menin MLL FP FL | . | 1.6 | 3.0 | -0.4
TRPV1 potentiator | . | 8 | 14 | -8
gsp antagonist | -11% | -33% | 2% | 1%
ClpP mod | 1.1% | . | -0.4% | -22%
Sfp inh | . | 3% | 9% | 79µM*
TRPML1 inh | -9 | 12 | -5 | -4
gsp ag | -2% | 6%[15.4 µM] | ? | -2%

# The listing, from the first entry:
1. CCCC(CCC(=O)Nc1cc([N+](=O)[O-])ccc1O)C(=O)O (centres undefined)
2. Cn1nc(C(=O)NNC(=O)CCc2ccccc2Cl)c2ccccc2c1=O
3. COc1cc(CNc2ccccc2Oc2cc(=O)n(C)c(=O)n2C)cc(OC)c1OC
4. CCCNS(=O)(=O)c1ccc2c(c1)CCCN2C(C)=O
5. O=C(/C=C/c1ccco1)Nc1ccccc1N1CCCC1
6. CC(C)Sc1nc2c(c(=O)n(C)c(=O)n2C)n1Cc1ccc(Cl)cc1
entry no. | 1 | 2 | 3 | 4 | 5 | 6
Menin MLL FP FL | -3.0 | . | 2.2 | 4.9 | -2.3 | 0.4
TRPV1 potentiator | 2 | 15 | -16 | 4 | -6 | .
gsp antagonist | 0% | -5% | 1% | 11% | -10% | 10%
ClpP mod | . | -1.5% | 0.0% | -2.5% | 3.5% | -0.4%
Sfp inh | -3% | . | -19% | 19% | ? | 2%
TRPML1 inh | 8 | 5 | 44 | -18 | 1 | 19
gsp ag | -48%[inhibitor] | ? | -12% | -25% | 1% | 17%

7. O=S(=O)(Nc1nc2ccccc2nc1Cl)c1ccc2ccccc2c1
8. Cc1ccc(C(=O)N/C(=C\c2ccco2)C(=O)N2CCOCC2)cc1C
9. N#Cc1c(N)n(C2OC(CO)C(O)C2O)c2ncnc(N)c12 (centres undefined)
10. CN(C)Cc1nc2ccccc2c(=O)n1Cc1nc(-c2cccc([N+](=O)[O-])c2)cs1
11. Cc1cc(C)n(CCN(C)c2nc3nonc3nc2NC2CC2)n1
12. OC(COc1ccc(Cl)c2ccccc12)CN1CCN(c2ccccn2)CC1 (centres undefined)
entry no. | 7 | 8 | 9 | 10 | 11 | 12
Menin MLL FP FL | 11 | . | . | 1.6 | 3.0 | -0.4
TRPV1 potentiator | -1 | -2 | . | 8 | 14 | -8
gsp antagonist | -14% | -2% | -11% | -33% | 2% | 1%
ClpP mod | -12% | 1.4% | 1.1% | . | -0.4% | -22%
Sfp inh | ? | -16% | . | 3% | 9% | 79µM*
TRPML1 inh | 19 | 4 | -9 | 12 | -5 | -4
gsp ag | 28% | -9% | -2% | 6%[15.4 µM] | ? | -2%

13. CCN(CC)c1ccc(NC(=O)c2cnc3ccccn3c2=O)c(C)c1
14. O=C(c1cccs1)N1CCC2(O)CCCCC2C1c1ccc(F)cc1 (centres undefined)
15. Cc1ccc(NC(=O)Nc2ccccc2C(N)=O)cc1
16. COc1ccc(C(=O)NCCc2ccc(C(F)(F)F)cc2)cc1S(=O)(=O)N1CCOCC1
17. COc1ccccc1-c1sc2ccccc2c1-c1ccc(Br)nc1
18. COc1cccc(NC(=O)CN2C(=O)C(c3ccc(C)cc3)=NC23CCCCCC3)c1
entry no. | 13 | 14 | 15 | 16 | 17 | 18
Menin MLL FP FL | 8.6 | 6.4 | 5.3 | . | . | -4.0
TRPV1 potentiator | -9 | 26 | -25 | 2 | 6 | 6
gsp antagonist | 7% | 15% | 2% | -9% | -7% | -10%
ClpP mod | 4.3% | 18% | 4.4% | -8.4% | ? | -0.7%
Sfp inh | 4% | 0% | 15% | . | . | 12%
TRPML1 inh | -3 | 2 | -8 | 10 | -1 | 15
gsp ag | -95%[inhibitor] | 26% | 0% | -1% | . | 32%

19. C/C(=N\NC(=O)C1=NNC(=O)C1C)c1cccs1 (centres undefined)
20. COc1ccc(OC)c(CCNC(=O)CCC(=O)N2CCOc3ccc(C)cc32)c1
21. O=C1/C(=C/c2ccc([N+](=O)[O-])cc2)CCc2ccccc21
22. COc1ccccc1CN1CC(C(=O)NCc2cccc(C)n2)CCC1=O (centres undefined)
23. O=C1CSC(=S)N1N=Cc1ccc(Cl)s1
24. NC(=O)c1ccccc1NC(=S)NC(=O)c1ccc(Br)o1
entry no. | 19 | 20 | 21 | 22 | 23 | 24
Menin MLL FP FL | 0.3 | -0.3 | 1.6 | . | . | 1.3
TRPV1 potentiator | -25 | -17 | 3 | -2 | . | -6
gsp antagonist | -2% | ? | . | 17% | -5% | -3%
ClpP mod | . | 1.2% | . | 0.8% | -5.0% | -28%
Sfp inh | -27% | 15% | 15% | 10% | . | 22µM*
TRPML1 inh | -8 | 5 | . | -5 | 14 | 19
gsp ag | -20%[15.4 µM] | -38%[inhibitor] | . | ? | 8% | 15%[15.4 µM]

25. Cc1ccc(S(=O)(=O)Nc2ccc(C(=O)NC3CC3)cc2)cc1
26. Clc1ccc(CSc2nc3ccncc3[nH]2)cc1
27. Cc1ccc(C(=O)N/N=C\c2ccc(-c3ccc(Cl)cc3)o2)cn1
28. CCOC(=O)C1=CN(Cc2cccc(F)c2)S(=O)(=O)N(CC)C1c1ccc(C(F)(F)F)cc1 (centres undefined)
29. COc1cc(OC)nc(NC(=S)NC(=O)c2ccccc2)n1
30. CCN(Cc1ccccc1)C1CCN(Cc2ccccc2)CC1
entry no. | 25 | 26 | 27 | 28 | 29 | 30
Menin MLL FP FL | 2.2 | -1.6 | 5.3 | . | 8.4 | -0.2
TRPV1 potentiator | -7 | -2 | . | . | 0 | -6
gsp antagonist | 6% | 2% | -40% | 2% | -9% | 14%
ClpP mod | -0.4% | 0.8% | ? | -1.5% | -2.7% | 0.9%
Sfp inh | 10% | 7% | 8% | . | -9% | 5%
TRPML1 inh | 0 | -17 | 12 | 43 | 33 | -2
gsp ag | 2% | 19% | -6% | . | -2% | 3%

31. Cc1c(NC(=O)OCCSc2nc(N(C)C)nc(N(C)C)n2)sc(=S)n1C
32. COC(=O)C1CCN(C(=O)CSc2nnc(-c3ccncc3)o2)CC1
33. CC(C)c1ccccc1NC(=O)CNCCOc1ccccc1F
34. CCCC(C)NC(=O)CN1C(=O)c2cccc3cccc1c23 (centres undefined)
entry no. | 31 | 32 | 33 | 34
Menin MLL FP FL | 0.5 | 3.0 | -7.9 | -2.9
TRPV1 potentiator | -13 | 0 | -16 | 7
gsp antagonist | 6% | 1% | 9% | -1%
ClpP mod | -8.1% | -5.6% | -0.5% | 22µM*
Sfp inh | -6% | -2% | -19% | 6%
TRPML1 inh | 2 | 0 | 2 | 11
gsp ag | 12% | -1% | -6% | -4%[15.4 µM]

# Screening results deposited in PubChem BioAssay by National Center for Advancing Translational Sciences (NCATS).
